H5N1 antiviral = MDCK cell protection from H5N1 avian flu; cytopathic effect, luminescence, 72 h; active compounds read high; no value below 0 was filed and about half of the inactive calls have no number; reference of the scale not given here; inhibition, % at 50 µM; 0.07% of 96,000 active; in the data active = inhibition above about 25%
An asterisk follows results filed as active; i = inactive.

mol	H5N1 antiviral
c1ccc(CC2=NCCN2)cc1	0.4
O=C(NCCc1c[nH]c2ccccc12)c1cccnc1	i
CCOc1ccc(C(=O)OCCN(CC)CC)cc1	i
CCN(CC)CCOC(=O)C1(c2ccccc2)CCCC1	1.0
CC(=O)NC(Cc1ccccc1)C(=O)O (centres undefined)	i
O=C(CCN1CCC(c2ccccc2)C1)c1ccc2c(c1)OCCO2 (centres undefined)	0.8
CN1CCN(CCC(=O)N2c3ccccc3Sc3ccc(C(F)(F)F)cc32)CC1	i
CCOc1ccc(NC(=O)Cn2cc(C(=O)c3ccco3)c3ccccc32)cc1	i

Reformatted with each value named: four of the compounds above.
CCOc1ccc(NC(=O)Cn2cc(C(=O)c3ccco3)c3ccccc32)cc1
  H5N1 antiviral = i

c1ccc(CC2=NCCN2)cc1
  H5N1 antiviral = 0.4

CC(=O)NC(Cc1ccccc1)C(=O)O (centres undefined)
  H5N1 antiviral = i

O=C(NCCc1c[nH]c2ccccc12)c1cccnc1
  H5N1 antiviral = i

High-throughput results deposited in PubChem BioAssay by SRMLSC.

The list is partial, so the mix of outcomes need not match the whole.
